Compound activity: PubChem BioAssay, National Center for Advancing Translational Sciences (NCATS)
Rango dissoc inh: qHTS Assay for Inhibitors of RanGTP induced Rango (Ran-regulated importin-beta cargo) - Importin beta complex dissociation. 340,000 compounds, 0.071% hits. Biochemical FRET Rango-importin beta, RanGTP-induced dissociation. Snurportin-1 (Homo sapiens) + GTP-binding nuclear protein Ran (Homo sapiens) + Importin …. Potency, µM (series often up to 46.1 µM), inactives show at the top dose activity change, negative = inhibition; active means falling FRET ratio curve, often poorly fitted, with flat reads before Ran was added; inconclusive means other falling curves, or compound fluorescence or quenching; inactive means flat or rising ratio curve;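 note: potency is the fitted concentration of half-maximal effect; % of control where 0% means no effect; nearly all actives have a fitted effect of over 45% in size; -100% = wells without RanGTP and RCC1; the record marks most hits as doubtful in a second field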
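Quantitative HTS using a FRET biosensor: 0.1 uM Rango, 0.25 uM importin beta, 0.6 uM Ran, 2 mM GTP, 0.2 uM RCC1 final, PBS with DTT, Tween-20 and BSA. Post-read taken 45 min after Ran addition.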
miR-21 FLuc: qHTS Assay for Modulators of miRNAs and/orActivators of miR-21. HeLa miR-21 FLuc reporter, luciferase, 48 h. Potency, µM (highest dose often 38.3 µM), without a hit: at the highest dose reporter change, positive = more light. 340,000 tested, under 10 active; active = well fitted rising curve with a large enough effect; inconclusive = small, poorly fitted or top-dose-only effect; inactive = no such curve, though single readings can be large or run the other way;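 note: % of control where 0% means no effect; miR-21 action dims this reporter so a rising signal means less miR-21 action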
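HeLa miR-21-FLuc reporter line, endogenous miR-21; 2000 cells/well in DMEM/10% FBS; compound titration up to ~40uM final, 48 h, 37 degree Celsius; luciferase detection reagent, 15 min lysis, CCD luminescence.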
Rango-impB inh: qHTS Assay for Inhibitors of Rango (Ran-regulated importin-beta cargo) - Importin beta complex formation; AID 540263, 2011; Rango CFP/YFP FRET sensor + importin beta, 45 min; Potency, µM (titrated, usually from 92.2 µM), for the others: top-dose inhibition of complex formation; Importin subunit beta-1 (Homo sapiens), Q14974; 340,000 compounds, 0.031% hits; active = rising FRET ratio curve, often small or poorly fitted; inconclusive = mostly compound fluorescence or quenching in the first reads; inactive = flat curves in all reads;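 note: potency is the fitted concentration of half-maximal effect; 0% = DMSO wells and 100% = buffer wells lacking importin beta; nearly all actives have a fitted effect of over 15% in size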
Target sequence (Q14974 whole entry, looked up): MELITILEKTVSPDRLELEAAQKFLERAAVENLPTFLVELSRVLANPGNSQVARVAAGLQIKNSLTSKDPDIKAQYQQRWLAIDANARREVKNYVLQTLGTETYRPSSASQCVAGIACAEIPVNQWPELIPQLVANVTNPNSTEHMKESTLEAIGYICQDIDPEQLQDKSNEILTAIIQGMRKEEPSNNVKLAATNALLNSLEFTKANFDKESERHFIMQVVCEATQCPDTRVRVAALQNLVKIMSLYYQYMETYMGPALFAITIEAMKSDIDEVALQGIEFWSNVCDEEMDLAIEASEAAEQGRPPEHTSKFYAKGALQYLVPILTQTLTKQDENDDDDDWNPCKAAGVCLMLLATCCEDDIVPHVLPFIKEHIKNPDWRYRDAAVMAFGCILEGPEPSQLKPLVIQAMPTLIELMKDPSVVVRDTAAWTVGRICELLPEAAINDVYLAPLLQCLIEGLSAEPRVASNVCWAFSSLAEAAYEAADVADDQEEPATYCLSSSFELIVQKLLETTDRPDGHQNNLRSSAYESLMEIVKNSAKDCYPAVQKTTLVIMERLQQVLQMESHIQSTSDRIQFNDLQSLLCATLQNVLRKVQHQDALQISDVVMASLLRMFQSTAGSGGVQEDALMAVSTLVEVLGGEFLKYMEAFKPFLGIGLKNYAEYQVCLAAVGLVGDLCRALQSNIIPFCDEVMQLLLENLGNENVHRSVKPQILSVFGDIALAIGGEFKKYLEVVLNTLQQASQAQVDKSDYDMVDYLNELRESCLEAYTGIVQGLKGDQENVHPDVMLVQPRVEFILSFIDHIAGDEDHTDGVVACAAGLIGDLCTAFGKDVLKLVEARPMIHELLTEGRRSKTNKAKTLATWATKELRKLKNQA
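FRET biosensor Rango (snurportin 1 IBB between N-terminal EYFP and C-terminal Cerulean), 50 nM in PBS/1 mM DTT/0.02% Tween-20/0.1% BSA, preincubated 5 min RT with compound; 0.125 microM importin beta added, 45 min RT, CFP/YFP FRET ratio read.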
GLA inh pH 4.5: qHTS Assay for Inhibitors of Human alpha-Galactosidase at pH 4.5; Alpha-galactosidase A (Homo sapiens), P06280; purified enzyme, 4-MU-alpha-Gal fluorescence, pH 4.5; activity change, negative = inhibition, % at 105 µM; 230,000 tested, under 10 active; inconclusive = small, poorly fitted or top-dose-only inhibition, or a rising curve; inactive = flat fitted curve, though single readings scatter; no compound was filed as active;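 note: 0% = full activity with enzyme and -100% = basal without enzyme; dose as in the result columns while the protocol names 77 µM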
An asterisk follows results filed as active; ? = inconclusive; · = not tested or not shown. The list is partial (hit frequency here may not be typical).

Rango dissoc inh | miR-21 FLuc | compound | Rango-impB inh | GLA inh pH 4.5
4% | ? | CC(C)c1ccc(-c2nnn(CCC(=O)O)n2)cc1 | -2.4% | 6
-8% | -10% | CCOc1ccc(S(=O)(=O)N(CC(=O)O)c2ccc(C)cc2)cc1 | -4.6% | 0
-9% | 14% | O=S(=O)(NC1c2cccc3cccc(c23)C1Sc1ncccn1)c1ccc(Cl)cc1 (stereo not given) | 0.7% | -4
0% | · | O=C(CCNC(=O)c1ccc(Br)cc1)Nc1ccccc1N1CCCCC1 | -3.7% | ·
9% | · | O=C(O)C1C2CC3OC(=O)C1C3C2 (stereo not given) | -0.2% | ·
0% | -10% | O=C(O)c1cccc(N2CCCC2)c1 | -0.6% | 7
· | 1% | C/C=C/C(=O)N1CC2(CC(c3cccc(NC(=O)CCCCC)c3)=NO2)C[C@H]1C(N)=O (stereo not given in full) | · | 0
12% | -20% | Cc1ccc(N(C)C(=O)N2CCN(S(=O)(=O)c3ccc(C)cc3)CC2)cc1 | -2.6% | -9
26% | 1% | Cc1cc(-c2nc3ccccc3[nH]2)ccc1N | 3.0% | 2
6% | 4% | CCc1nc2ccccc2[nH]c1=O | -1.1% | -3
-2% | -2% | CC(C)CN(CCCNC(=O)CC1Oc2ccccc2NC1=O)CC(C)C (stereo not given) | -0.2% | -15
6% | -4% | CC(C)CCCN1CCN=C1N(C)C | ? | ·

Ordered by value in Rango dissoc inh (low to high): three from the list above.
Rango dissoc inh | miR-21 FLuc | compound | Rango-impB inh | GLA inh pH 4.5
-8% | -10% | CCOc1ccc(S(=O)(=O)N(CC(=O)O)c2ccc(C)cc2)cc1 | -4.6% | 0
6% | 4% | CCc1nc2ccccc2[nH]c1=O | -1.1% | -3
9% | · | O=C(O)C1C2CC3OC(=O)C1C3C2 (stereo not given) | -0.2% | ·

Going on with the list:
Rango dissoc inh | miR-21 FLuc | compound | Rango-impB inh | GLA inh pH 4.5
4% | -48% | Cc1ccc(C)c(CNC(=O)Nc2ccccc2)c1 | -1.6% | ·
-1% | 25% | O=C(c1ccc(S(=O)(=O)Cc2ccccc2F)c([N+](=O)[O-])c1)N1CCCC1 | -0.2% | 3
-7% | -3% | CCC1C(=O)NCCN1C(=O)c1ccccc1OC1CCN(S(C)(=O)=O)CC1 (stereo not given) | -0.8% | 2
-3% | 2% | CCc1cccc2c1NC(=O)C21OCCO1 | 0.8% | ·
1% | 2% | O=C(Nc1cc(C(F)(F)F)ccc1Cl)c1cccc(N2C(=O)CCC2=O)c1 | 1.2% | ·
23% | -23% | CC1CCc2sc(C(=O)Nc3nnc(SCc4ccc(F)cc4)s3)cc2C1 (stereo not given) | 2.8% | 6
-2% | 1% | OCCNc1cc(Cl)ncn1 | -1.1% | 10
-8% | -18% | COc1ccc(N2CCN(C(=O)c3ccc(NS(=O)(=O)c4ccc(F)c(F)c4)cc3)CC2)cc1 | -3.8% | 4
-23% | -25% | COc1ccccc1C(=O)N/N=C(\C)CC(=O)Nc1ccccn1 | -3.4% | ·
? | -12% | COC(=O)c1ccccc1NCc1cc(=O)oc2cc(O)c(O)cc12 | ? | ·
1% | -1% | COc1ccccc1CNC(=O)C1Cc2cc(S(=O)(=O)N3CCCCC3)ccc2N1C(C)=O (stereo not given) | 0.5% | ·
-7% | -34% | O=C(C1CC(c2ccccc2O)=NO1)N1CCc2ccccc2C1 (stereo not given) | -1.3% | 1
-6% | -3% | O=C(NC(c1ccccc1)c1ccccn1)c1cccc([N+](=O)[O-])c1 (stereo not given) | 0.0% | 7
14% | -7% | CCn1cc(CNC(=S)Nc2cccc3ccccc23)cn1 | 5.7% | 1
2% | 10% | COc1ccc(NC(C)=O)cc1NC(=O)CN1CCN(CC(=O)Nc2ccccc2Cl)CC1 | -0.1% | 2
10% | -4% | COC(=O)Cc1ccc(NC(=S)NCc2cccc(OC)c2)cc1 | -2.3% | -16
0% | 0% | COc1ccc(NC(=O)Cn2nnc(C(=O)NCCc3ccccc3)c2N)c(OC)c1 | -0.2% | ·
17% | -1% | COc1ccc(CNCc2ccc(F)cc2)c(OC)c1 | -3.5% | ·
11% | -36% | Cn1cc(Br)c(C(=O)N/N=C/c2cc3c(cc2Cl)OCO3)n1 | 1.0% | ·
13% | -32% | C(=N\N1CCN(Cc2ccccc2)CC1)/c1ccccc1 | -4.4% | -4
-23% | -7% | CC(C)NC(=O)c1c(O)c2ccccc2[nH]c1=O | 1.2% | -2
1% | -9% | C=CCCC(=O)N1CCC(n2nccc2NC(=O)CCCc2ccccc2)CC1 | 0.6% | ·
7% | 15% | NS(=O)(=O)c1ccc(CCNC(=O)COC(=O)CC(c2ccccc2)c2ccccc2)cc1 | -1.7% | -2
· | -1% | Cc1nc2ccc(NC(=O)Cn3cnc4c3c(=O)n(C)c(=O)n4C)cc2s1 | · | 1
8% | -6% | Cn1nc(C(F)(F)F)c2cc(C(=O)N3CCOCC3)sc21 | 0.0% | -23
-8% | -15% | O=C(Nc1ccc(C(=O)c2ccccc2)cc1)c1ccccc1 | -3.9% | ·
-11% | 6% | NC1=NC(=O)S/C1=C\c1ccc(F)cc1 | -2.3% | 2
1% | 2% | NC(=O)c1cccn1Cc1ccccc1Cl | -2.4% | 6
-28% | -4% | CCOC(=O)c1c(C)[nH]c(C)c1S(=O)(=O)N1CCCCC1 | -2.7% | ·
-11% | · | CC1CCCC(C)N1C(=O)COC(=O)c1cc(-c2cccs2)nn1-c1ccccc1 (stereo not given) | 0.7% | ·
0% | -66% | O=C(CSc1ccc(F)cc1)Nc1ccc(C2SCCS2)cc1 | -0.4% | -1
1% | -1% | O=C1C=C(Nc2ccccc2)c2ccccc2C1=O | -0.6% | -17
-28% | -56% | Cc1ccc([N+](=O)[O-])cc1-c1ccc(/C=C(\C#N)c2[nH]nc(N)c2C#N)o1 | 0.8% | -7
4% | -14% | Cn1nnc2c(N3CCCCC3)nccc21 | -4.8% | 7
-14% | -1% | Cc1cc(NCC2CCCO2)n2c(nc3ccccc32)c1C#N (stereo not given) | 0.2% | 5
-8% | -11% | O=C(NC12CC3CC(CC(C3)C1)C2)N1CC2Cc3cccc(=O)n3C(C2)C1 (stereo not given) | -0.5% | 6

6 compounds picked at random from the list so far:
Rango dissoc inh | miR-21 FLuc | compound | Rango-impB inh | GLA inh pH 4.5
-8% | -11% | O=C(NC12CC3CC(CC(C3)C1)C2)N1CC2Cc3cccc(=O)n3C(C2)C1 (stereo not given) | -0.5% | 6
-8% | -15% | O=C(Nc1ccc(C(=O)c2ccccc2)cc1)c1ccccc1 | -3.9% | ·
0% | -66% | O=C(CSc1ccc(F)cc1)Nc1ccc(C2SCCS2)cc1 | -0.4% | -1
8% | -6% | Cn1nc(C(F)(F)F)c2cc(C(=O)N3CCOCC3)sc21 | 0.0% | -23
-28% | -56% | Cc1ccc([N+](=O)[O-])cc1-c1ccc(/C=C(\C#N)c2[nH]nc(N)c2C#N)o1 | 0.8% | -7
1% | 2% | NC(=O)c1cccn1Cc1ccccc1Cl | -2.4% | 6

Additional compounds follow.
Rango dissoc inh | miR-21 FLuc | compound | Rango-impB inh | GLA inh pH 4.5
-1% | · | Cc1ccc(-n2nnnc2SCC(=O)N2CCNC2=O)cc1C | 4.6% | ·
19% | -44% | O=C(CSc1nc2ccccc2c(=O)[nH]1)c1ccccc1 | 2.3% | 2
· | -6% | C/C(=C\C(=O)c1ccc(C)cc1)Nc1ccc(N2CCOCC2)cc1 | · | 2
3% | 2% | Cc1noc(C)c1C(=O)N(C)Cc1ccccc1 | 0.7% | -3
-4% | -5% | COc1ccc(C(C(=O)NC2CCCC2)N(Cc2ccc(C)cc2)C(=O)c2ccn[nH]2)cc1OC (stereo not given) | -0.4% | 6
-5% | -49% | COC(=O)N/N=C/c1ccc(Oc2ccccc2)cc1 | -2.2% | -20
? | -42% | CCN(CC)C(=O)Oc1ccc2c(c1)O/C(=C\c1ccco1)C2=O | ? | ·
-6% | · | CN(C)S(=O)(=O)c1cccc(C(=O)Nc2ccc(C(=O)Nc3cccc(S(N)(=O)=O)c3)cc2)c1 | -2.3% | ·
0% | 0% | Cc1cc(NS(=O)(=O)c2cccc([N+](=O)[O-])c2)no1 | -2.3% | ·
0% | 0% | Cc1ccc(N(CC(=O)O)S(C)(=O)=O)cc1 | 6.5% | 0
-6% | 20% | O=C(O)CCCc1nc(-c2ccc(Cl)cc2)no1 | -1.0% | -2
· | -4% | COc1ccc(C(=O)CC(c2ccccc2)S(=O)(=O)c2ccc(C)cc2)cc1 (stereo not given) | · | -6
-4% | ? | O=C(N/N=C/c1ccc([N+](=O)[O-])o1)C1CC1 | -0.7% | -14
10% | -3% | COc1ccc(-c2nc(CS(=O)CC(=O)NCc3cccnc3)c(C)o2)cc1 (stereo not given) | ? | -5
9% | -2% | CN(Cc1nccn1C)C(=O)CC1C(=O)NCCN1CC(c1ccccc1)c1ccccc1 (stereo not given) | 5.6% | -13
3% | 14% | CCCOc1ccc(CCCN=C(N)N)cc1Cl | -2.0% | -5
3% | 1% | S=c1[nH]nc(CSc2nc3ccccc3s2)n1C1CCCCC1 | -6.3% | 0
7% | -6% | Cc1ccc(SCCC(=O)NCc2ccco2)cc1 | -2.6% | 4
-11% | · | COc1ccc(CNCCCn2cnc(C(=O)Nc3ccc(C)c(C)c3)n2)cc1 | -0.1% | ·
-6% | 23% | O=C1CC(c2ccc(Cl)c([N+](=O)[O-])c2)c2ccc3ccccc3c2N1 (stereo not given) | 3.9% | -8
12% | -3% | CCN(Cc1ccccc1)C(=O)Cn1cc2c(n1)CCCC2 | 0.4% | 4
3% | -3% | COc1ccc(CC(=O)N(C)CC(=O)Nc2cccc(F)c2)cc1S(=O)(=O)N1CCOCC1 | ? | ·
-6% | -4% | CCOC(=O)C=C1CCN(c2ncc(C(F)(F)F)cc2Cl)CC1 | 6.2% | -3
10% | -6% | Cc1ccc(S(=O)(=O)N(C)c2ccc(C(=O)NCC3CCCO3)cc2)cc1 (stereo not given) | 4.4% | 2

5 of these compounds in another layout:
structure,Rango dissoc inh,miR-21 FLuc,Rango-impB inh,GLA inh pH 4.5
CC1CCCC(C)N1C(=O)COC(=O)c1cc(-c2cccs2)nn1-c1ccccc1 (stereo not given),-11%,·,0.7%,·
O=C(CSc1ccc(F)cc1)Nc1ccc(C2SCCS2)cc1,0%,-66%,-0.4%,-1
O=C1C=C(Nc2ccccc2)c2ccccc2C1=O,1%,-1%,-0.6%,-17
Cc1ccc([N+](=O)[O-])cc1-c1ccc(/C=C(\C#N)c2[nH]nc(N)c2C#N)o1,-28%,-56%,0.8%,-7
Cn1nnc2c(N3CCCCC3)nccc21,4%,-14%,-4.8%,7

Next section
Rango dissoc inh | miR-21 FLuc | compound | Rango-impB inh | GLA inh pH 4.5
28% | -1% | CC(=O)c1[nH]c(C)c(C(=O)N2CCCC(Nc3ccc(C(C)C)cc3)C2)c1C (stereo not given) | 3.6% | ·
1% | 0% | CC(C)CN1CN(Cc2ccccc2)CNC1=S | 2.0% | 6
7% | ? | COc1cc2nc(N(C)C)nc(N)c2cc1OC | -0.2% | 3
? | -7% | CCN(C(=O)CN1CCc2ccccc21)c1c(N)n(Cc2ccccc2)c(=O)[nH]c1=O | ? | 13
